CSC inhib = blocks cancer stem cells; actives 1.1% (n = 300,000); cancer stem cell-like cells viability, luminescence; inhibition, % at 7.5 µM;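 active = mean at 75% or more and at least half the replicates too; inconclusive = mean and replicates disagree; tested in HMLE shEcad cells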;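 note: 0% = median of negative and 100% = median of positive control wells; the first replicate is given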
Env fusion inh = inhibitors of HIV Env-mediated cell fusion; HeLa-JRFL Env/CEM21 cell fusion, luciferase; inhibition, % at 12.3 µM; actives 1.1% (n = 360,000); AID 651610;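 active = mean replicate inhibition score of at least 50 and every replicate individually at or above 50; inconclusive = only one of the two criteria met; inactive = mean below 50 and not all replicates reaching 50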;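 note: 0% = plate neutral controls and 100% = maraviroc near 300 nM; one replicate is shown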
PABP FP inh = blocks human PABP binding to poly(A) RNA. AID 2014. actives 1% (n = 290,000). fluorescence polarization. inhibition, % at 35 µM;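 active = 50% or more with normal probe brightness, or confirmed in later tests; inconclusive = above 50% with abnormal brightness, or retests that disagree; inactive = below 50% or failed in later tests; about a fifth of its hits are not listed in these tables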;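 note: calls also rest on retests at 20 µM and on dose response follow-up; controls were probe without protein and protein plus probe with vehicle; some compounds called inactive have numbers as strong as hits; many hits fall short of the cut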
Target sequence (P11940 whole entry, looked up): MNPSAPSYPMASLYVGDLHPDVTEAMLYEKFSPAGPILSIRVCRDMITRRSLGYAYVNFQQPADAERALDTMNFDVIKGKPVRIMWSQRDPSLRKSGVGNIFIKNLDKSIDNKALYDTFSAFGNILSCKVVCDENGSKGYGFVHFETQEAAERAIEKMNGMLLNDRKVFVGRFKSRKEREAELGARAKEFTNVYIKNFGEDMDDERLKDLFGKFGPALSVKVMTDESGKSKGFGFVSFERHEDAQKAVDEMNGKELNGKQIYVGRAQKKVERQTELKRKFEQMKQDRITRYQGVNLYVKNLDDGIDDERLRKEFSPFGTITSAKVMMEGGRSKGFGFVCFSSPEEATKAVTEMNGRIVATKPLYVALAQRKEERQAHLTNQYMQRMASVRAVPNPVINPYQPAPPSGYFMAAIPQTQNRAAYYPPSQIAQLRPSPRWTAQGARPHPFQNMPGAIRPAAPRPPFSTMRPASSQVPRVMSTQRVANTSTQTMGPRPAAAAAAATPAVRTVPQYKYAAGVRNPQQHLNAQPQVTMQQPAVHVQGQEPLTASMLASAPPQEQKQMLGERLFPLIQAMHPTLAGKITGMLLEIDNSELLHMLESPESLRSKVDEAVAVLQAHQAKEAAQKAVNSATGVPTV
eIF4H inh = inhibitors of RNA binding by human eIF4H; Q15056; eIF4H fluorescence polarization binding assay; inhibition, % at 35 µM; actives 0.94% (n = 290,000);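 active = 50% or more with normal probe brightness, or confirmed in later tests; inconclusive = above 50% with abnormal brightness, or retests that disagree; inactive = below 50% or failed in later tests; about a fifth of its hits are not listed in these tables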;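 note: calls also rest on retests at 20 µM and on dose response follow-up; 0% = protein and probe with vehicle and 100% = probe without protein; strong numbers were not always called active; many hits fall short of the cut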
Rce1 inh = inhibitors of yeast Ras-converting enzyme; actives 0.27% (n = 290,000); calls only; yeast membranes, quenched prenylated peptide cleavage fluorescence; AID 2563; Q03530;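 active = fall in fluorescence gain of 50% or more versus controls, with final raw signal at or below 3038400; inconclusive = same 50% fall but final raw signal above 3038400; inactive = fall in fluorescence gain under 50%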;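 note: plate controls were neutral control wells for no effect and wells lacking membranes for full effect; tested at 10 µM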
MT1-MMP act inh = MT1-MMP (human) activation inhibition. P50281. HT1080 RFP-PRO-GFP cells, GFP/RFP ratio fluorescence, overnight; percent of plate control window, DMSO zero. GFP/RFP ratio change, % at 20 µM. actives 0.061% (n = 360,000). AID 651647;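 active = GFP/RFP ratio change of at least 30% with cell ATP level not reduced by more than half and red fluorescence within 50% of control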; note: strong numbers were not always called active
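Material – HT1080 RFP-PRO-GFP cells · Control set – DMSO wells and RFP-L50D-GFP cells · Incubation – overnight cell settling, then overnight compound exposure, 37 °C, 5% CO2 · Compound dosing – single-point 20 µM compound, 1% DMSO · Read-out – GFP/RFP fluorescence ratio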
UUG fidelity = yeast start codon fidelity modulation. actives 0.13% (n = 350,000). activity score, % at 18.7 µM. S. cerevisiae UUG-firefly luciferase reporter, luminescence/redox ratio;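 active = replicate mean at a twofold rise or more, about +100% in these data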;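 note: firefly luciferase made from a UUG start codon reports start codon fidelity; reporter light over untreated wells divided by growth signal over untreated wells; some hits fall short of that in this replicate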
eIF4H inh retest = also measured in eIF4H inh; calls as there; inhibition, %; compound at 20 µM; confirmation average;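 mean of two retest wells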
PABP FP inh retest = also measured in PABP FP inh; calls as there; inhibition, %; compound at 20 µM; confirmation repeats;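 mean of two retest wells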
MT1-MMP act inh RFP = recorded beside MT1-MMP act inh, whose call it bears; RFP signal change, %; measured here: RFP expression control read;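 0 = vehicle wells; hits needed this value within 50% of zero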
* marks the source's active call; other numbers are inactive results; i = inactive; ? = inconclusive; nt = no result given; & = joins results of further samples. Some of the compounds tested; the hit share may differ from the screen's.

SMILES	CSC inhib	Env fusion inh	PABP FP inh	eIF4H inh	Rce1 inh	MT1-MMP act inh	MT1-MMP act inh RFP	UUG fidelity	others
CC(C)C(NS(=O)(=O)c1ccccc1)C(=O)N1CCCCCC1 (centres undefined)	-14	1	-1	-8	i	0	2	0
CCCNC(=O)NC(=O)c1cnccc1C(F)(F)F	-4	-5	1	5	i	0	0	-2
COc1cc(/C=N/N=C2/SCC(=O)N2c2ccc(O)cc2)ccc1O	-4	0	-2	-22	i	0	-1	-19
O=C1OCCC1Sc1nnc(-c2ccccc2)o1 (centres undefined)	-1	nt	-4	6	i	10	7	-27
CCN(CC)Cc1cc(C(C)=O)ccc1O	-7	nt	-2	-3	i	1	4	-19
COc1ccccc1C/C(N)=N/OC(=O)COc1cccc(C)c1	13	-91	-2	-8	i	3	1	58
COc1ccc(NC2=CC(=O)N(C)C2=O)cc1	-6	8	12	3	i	0	1	nt
c1cncc(C(c2nnnn2C2CCCC2)N2CCCC2)c1 (centres undefined)	-11	-7	-15	-16	i	1	3	-21
O=C(Nc1cc(C(F)(F)F)ccc1N1CCOCC1)c1ccc(F)cc1	-15	nt	-3	-3	i	1	-1	-14
COc1cccc(C(NC(C)=O)c2nc(-c3ccc(F)cc3OC)cs2)c1 (centres undefined)	nt	-137	nt	nt	nt	1	0	-1
CCN1CCN(Cc2ccc(NC(=O)c3cc(NC(=O)N4CCNC4=O)cc(OC)c3)cc2C(F)(F)F)CC1	-8	-27	-1	-9	i	4&10	2&3	-1&10
COC(=O)c1c(NC(=S)NN2CCN(C)CC2)sc2c1CCC(C)C2 (centres undefined)	104*	-105	-3	3	i	-9	-8	nt
COc1ccc(Cc2nnc(-c3ccccc3)o2)cc1	-12	-37	-3	-2	i	3	-5	nt
Cc1ccc(NC(=O)CCN2CCN(C/C=C/c3ccccc3)CC2)cc1C	nt	42	0	-3	i	-2	-5	10
COc1cccc(CN2CCCC(C(=O)Nc3ccc(-c4cscn4)cc3)C2)c1 (centres undefined)	3	7	5	3	i	3	5	-4
O=C(c1cc(-c2ccco2)nc2ccccc12)N(Cc1nnc(-c2ccc(Cl)cc2)o1)C1CC1	8	nt	nt	nt	i	7	4	-30
CCCN(CCC)C(=O)Cc1coc2ccc3ccccc3c12	0	-119	-2	2	i	-20	-10	2
CCOC(=O)C1CCCN(Cc2nc(CC3CC3)no2)C1 (centres undefined)	-10	-6	11	1	i	-1	-3	-25
CCOC(=O)c1oc2ccccc2c1COC(=O)CNC(=O)c1ccccc1F	nt	12	nt	nt	nt	3	3	-11
CCCN(Cc1cc2cc(C)ccc2[nH]c1=O)C(=O)c1cccc(OC)c1	-5	nt	36	9	i	-1	-9	-9

Reprinted from the part before: 2 entries, then new ones.
SMILES	CSC inhib	Env fusion inh	PABP FP inh	eIF4H inh	Rce1 inh	MT1-MMP act inh	MT1-MMP act inh RFP	UUG fidelity	others
CCOC(=O)c1oc2ccccc2c1COC(=O)CNC(=O)c1ccccc1F	nt	12	nt	nt	nt	3	3	-11
CCCN(Cc1cc2cc(C)ccc2[nH]c1=O)C(=O)c1cccc(OC)c1	-5	nt	36	9	i	-1	-9	-9
Cc1sc2nc(SCC(=O)N(CCO)CCO)n(C3CCCCC3)c(=O)c2c1C	nt	nt	1	2	i	18	-15	19
CC1(C)Cc2cccc(OCC(=O)Nc3ccc(S(N)(=O)=O)cc3)c2O1	-8	4	nt	nt	i	5	-8	-17
O=C(NCc1ccccc1)C(c1cccs1)N(Cc1cccs1)C(=O)c1cnccn1 (centres undefined)	-6	4	-7	-13	i	-4	3	-14
CCOCCCN1CN(S(=O)(=O)c2ccc(Cl)cc2)c2nc3ccccc3nc21	15	nt	2	6	i	-5	4	-11
Cc1c(C(=O)NC(=S)Nc2ccccc2N2CCCC2)cccc1[N+](=O)[O-]	17	-30	-10	10	i	9	8	nt
Nn1c(SCC(=O)Nc2ccccc2C(F)(F)F)nncc1=O	-11	nt	-1	10	i	0	6	-22
O=C(c1cnccn1)N(Cc1cccs1)C1(C(=O)NC2CCCCC2)CCCCC1	-8	22	-7	-6	i	4	6	nt
CCNc1nc(NC(C)C)nc(N(C#N)C(C)C(=O)N(CC)CC)n1 (centres undefined)	-13	9	-7	5	i	-1	3	-9
Cc1cc(C)cc(OCC(=O)NNC(=O)c2cc3ccccc3oc2=O)c1	nt	-6	1	1	nt	4	0	-9
O=C(CN1C(=O)S/C(=C\c2ccc(Cl)cc2)C1=O)NC1C=CS(=O)(=O)C1 (centres undefined)	9	-15	-1	20	i	-7	-11	-1
CCNC(=O)C1(C)CCN(C(=O)c2ccc3c(c2)CCO3)C1 (centres undefined)	nt	-4	nt	nt	nt	-3	2	-21
COc1cccc(C(=O)Nc2ccccc2C(=O)NCC2CCCO2)c1 (centres undefined)	-6	-2	-10	-9	i	-4	-1	-1
COc1ccc(N(Cc2cc(=O)[nH]c3ccccc23)C(=O)CCl)cc1	57	15	7	5	i	-9	-4	-9
COc1ccc(Cl)cc1S(=O)(=O)NC(C)C(=O)NCc1ccccn1 (centres undefined)	-14	-26	7	-3	i	-3	0	nt
COCCCNC(=O)c1cn(C)c(=O)c2c1c1ccccc1n2C	-6	17	-7	-17	i	3	3	0
O=C(COC(=O)C1CCC(=O)N1)Nc1cccc([N+](=O)[O-])c1 (centres undefined)	-15	-52	nt	nt	nt	2	2	-9
C=C(CCO)C1=CCN(S(=O)C(C)(C)C)[C@H]1CCO (some centres undefined)	nt	-13	nt	nt	nt	0	4	1
O=C(Nc1cc2c3c(c1)CC(=O)N3CCC2)c1ccco1	0	nt	nt	nt	i	3	4	-24
CCC(CO)Oc1cc(NCc2ccc(F)cc2)c2ncn(C(C)C)c2c1 (centres undefined)	nt	-9	nt	nt	nt	-4	2	-4
CCCCCn1c(CCNC(=O)c2cccs2)nc2ccccc21	-17	nt	7	11	i	3	-4	-6
CC(=O)Nc1ccc(NC(=O)C(C)Sc2nc3ccccc3c(=O)n2CC2CCCO2)cc1 (centres undefined)	-9	11	nt	nt	i	4	5	nt
CCNc1nc(NCC)nc(Oc2ccc(OCC)nn2)n1	10	nt	6	0	i	12	9	-23
CC1(C(=O)NCc2ccccc2Br)CCN1C(=O)Cc1ccc(-c2ccccc2)cc1 (centres undefined)	nt	-23	nt	nt	nt	-2	-17	-16
COc1ccc(C2CC(c3cccs3)=NN2C(=O)CCl)cc1OC (centres undefined)	72	62*	2	-7	i	-2	-7	-10
CCC(=O)c1c[nH]c(C(=O)NCc2cccc(C(F)(F)F)c2)c1	2	2	-4	-9	i	1	3	-10
CC(=O)N1CCC(C(=O)OCc2ccccc2F)(c2ccccc2)CC1	-1	5	-2	-6	i	0	-3	-7
COc1cc(/C=N/n2cnnc2-n2nc(C)cc2C)cc([N+](=O)[O-])c1O	-13	3	3	-5	i	1	-7	-10
COC(=O)CCC[C@H]1CC2(C[C@H](CCCO[Si](C)(C)C(C)(C)C)N1C(=O)OC(C)(C)C)OCCO2	30	74*	nt	nt	nt	-9	-9	7
O=C(NCCC1=CCCCC1)c1ccc(Cl)c(S(=O)(=O)Nc2ccccc2)c1	19	nt	-11	-4	i	-2	-19	-13
Cc1ccc(Nc2nnc(SCC(=O)NCc3ccco3)s2)cc1	nt	nt	9	10	i	nt	nt	-4
O=c1cc(CN2CC(O)Cc3ccc4ccccc4c32)nc2sccn12 (centres undefined)	-15	-2	5	0	i	-7	-4	nt
O=C(NCC1CCCCC1)c1csc([C@@H]2O[C@H](CO)[C@H](O)[C@H](O)[C@H]2O)n1	nt	7	nt	nt	nt	5	3	-18
COc1ccc(NC2CCCN(C(=O)COc3ccc(Cl)cc3C)C2)cc1OC (centres undefined)	4	9	-7	-2	i	-2	-4	-2
CCOC(=O)c1sc(Nc2ccc(OCC)cc2)nc1C	5	-9	-11	5	i	-1	-4	nt
CC(=O)NCc1nc2ccccc2n1Cc1ccccc1C	1	20	-3	-9	i	-3	-3	-13
CC(C)(C)CN1CCNC(=O)C1CC(=O)NCCc1ccccc1F (centres undefined)	-7	2	28	8	i	-2	0	-9
CCOc1ccc(NC(=O)CN(C)S(=O)(=O)c2cccs2)cc1	-6	nt	-7	-4	i	0	1	19
CC(=O)Nc1cc2c(cc1Cl)Cc1cc(Cl)ccc1-2	nt	?	nt	nt	nt	-4	-1	-13
CCNC(=O)C1(C)CCCN(Cc2ccc(Oc3ccccc3)cc2)C1 (centres undefined)	nt	?	nt	nt	nt	-1	-5	-1
CCOC(=O)N1CCOCCOCCN(C(=O)OCC)CCOCC1	-1	nt	-1	-15	nt	-7	4	-1
O=c1c2c(nc3c(-c4cccc(Br)c4)c[nH]n13)CCCC2	11	41	-7	-12	nt	0	-16	-9
COc1ccc(C(=O)C[n+]2ccc3c(c2)nnn3-c2ccccc2)cc1	-6	-16	-13	38	i	-18	1	-16
O=C(/C=C/c1ccc(Cl)cc1Cl)N1CCc2ccccc21	13	-265	2	2	i	-5	0	nt
Cc1cc(C(=O)O)ccc1[N+](=O)[O-]	-11	nt	nt	nt	nt	0	4	-13
COc1cc(O)ccc1/C=N/NC(=O)c1ccc([N+](=O)[O-])cc1	-1	-6	1	-6	i	3	4	-15
O=C1[C@H](Cc2ccccc2)NCCCC[C@@H](c2ccc(Cl)cc2)N1Cc1ccc(Cl)cc1	nt	-19	nt	nt	nt	0	1	-13
COc1ccc(Nc2nc3c([nH]2)c(=O)[nH]c(=O)n3C)cc1	-8	13	0	2	i	-1	0	nt
C=CCn1c(SCC(=O)Nc2ccc(F)cc2)nc2ccccc2c1=O	30	27	-5	-9	i	-1	-4	-6
CC(C)(CNC(=O)Cc1ccc(Cl)cc1Cl)N1CCCCC1	-14	-2	2	-17	i	-1	0	-11
O=Cc1ccc(OCc2ccccn2)cc1	1	-51	5	1	i	-2	2	-14
Cc1cc(O)cc(C)c1NS(=O)(=O)c1ccc2ccccc2c1	0	16	8	4	i	1	-1	-11
COc1ccc(Cl)cc1CN1CCN(c2nc(C)cc(C)c2C#N)CC1	26	nt	73*	46*	i	-1	-4	-13	eIF4H inh retest=94*;PABP FP inh retest=66*
CC(C)c1nnc(NC(=O)CCC(=O)Nc2ccccc2)s1	1	-21	-3	3	i	4	0	nt
C#CC[N+]1(CC#Cc2cccc3ccccc23)CCOCC1	-3	2	8	-5	i	-2	-5	nt
CCOc1ccc(NC(=S)NS(=O)(=O)c2cc(Br)ccc2OCC)cc1	-4	3	nt	nt	i	3	3	-18
CCn1c(C)nnc1SCC(=O)Nc1ccc2c(c1)OCCO2	-5	-3	-5	-7	i	5	7	-20
COc1cc(NC(=O)CN2CCC(C)CC2)c(C)cc1[N+](=O)[O-]	20	1	-1	2	i	4	7	-26
O=C(OCCN1CCOCC1)c1ccccc1	-8	-17	-5	11	i	8	4	-9
CC1CN(CCCOc2ccc([N+](=O)[O-])cc2)CC(C)O1 (centres undefined)	1	9	-6	-7	i	-1	3	-11
COc1ccc(CNC(=O)CN2C(=O)C3CCCN3c3ncc(Cl)cc32)cc1 (centres undefined)	-15	-39	-3	0	i	2	-1	-11
Cc1ccc2nc(-c3ccc(NS(=O)(=O)c4c(C)n(C)c(=O)n(C)c4=O)cc3)sc2c1	13	-93	-1	0	i	-7	-4	nt
COc1ccc(CCNC(=S)NC(=O)c2cccc(Cl)c2)cc1OC	8	4	-4	-6	i	3	-2	-21

Source: PubChem BioAssay
